# From PubChem
# Calb FLC: C. albicans growth inhibition with fluconazole, primary screen, CaCi-2 strain, Alamar Blue fluorescence; growth inhibition, % (test concentration not listed); hit rate 0.57% among 300,000; C. albicans CaCi-2 (fluconazole-resistant clinical isolate) + fluconazole, 48 h; AID 1979, 2009;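 active means most replicates above 75%; inconclusive means exactly half above 75%; inactive means most below 75%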;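 further: all wells also contain fluconazole at 8 µg/ml as a sub-toxic cotreatment; 0% = median of DMSO wells and 100% = median of geldanamycin control wells; wells of about 8 µL received 7.5 nL stock; the first replicate is given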
# T cruzi inh: inhibitors of intracellular T. cruzi growth, primary screen, luminescence, NIH3T3 host cells. T. cruzi beta-gal in NIH3T3, 90 h. inhibition, % (no concentration beside the values). hit rate 1.4% among 300,000. AID 1885, 2009;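 active means mean inhibition across valid replicates above about 55%, limit read from the data; inconclusive means mean below that limit but half or more replicates reach it; inactive means mean below it, under half of replicates reach it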;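 further: signal also drops with host cell toxicity which is not excluded here; 0% = plate median of DMSO wells and 100% = zero luminescence signal; higher percent means less beta-gal luminescence so fewer parasites; stock transfer was 50 nL into about 50 µL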
# AF4-AF9 inh: inhibitors of AF4 peptide binding to AF9, primary screen, biochemical, AlphaScreen, biotin-AF4 peptide, FLAG-AF9, single point | hit rate 0.47% among 350,000 | inhibition, % at 10 µM | Protein AF-9 (Homo sapiens), P42568;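 active means every replicate reaching a set inhibition limit, whatever the replicate mean, cut at about 25% in these data; inconclusive means mean inhibition reaches that limit but some replicates miss it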;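 further: 0% = plate neutral control median and 100% = total signal loss; the record names both 10 and 1 µM as test concentration; the first replicate is given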
# Target sequence (P42568 whole entry, looked up): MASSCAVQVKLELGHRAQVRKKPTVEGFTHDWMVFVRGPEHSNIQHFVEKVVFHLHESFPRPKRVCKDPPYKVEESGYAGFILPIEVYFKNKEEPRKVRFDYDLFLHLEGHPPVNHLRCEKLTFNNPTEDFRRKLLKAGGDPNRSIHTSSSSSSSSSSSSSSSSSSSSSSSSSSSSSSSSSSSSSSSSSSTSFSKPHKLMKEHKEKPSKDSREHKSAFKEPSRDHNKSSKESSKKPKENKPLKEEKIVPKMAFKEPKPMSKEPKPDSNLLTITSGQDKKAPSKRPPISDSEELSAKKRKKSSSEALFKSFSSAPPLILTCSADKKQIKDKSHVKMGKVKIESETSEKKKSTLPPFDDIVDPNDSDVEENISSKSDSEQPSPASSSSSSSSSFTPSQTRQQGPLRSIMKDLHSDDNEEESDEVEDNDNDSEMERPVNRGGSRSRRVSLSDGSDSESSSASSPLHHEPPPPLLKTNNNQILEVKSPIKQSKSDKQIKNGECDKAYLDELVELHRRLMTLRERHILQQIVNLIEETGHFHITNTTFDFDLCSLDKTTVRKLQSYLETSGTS
# Ecoli rRNA inh: reduced GFP signal of wild-type E. coli, primary screen, bacterial rRNA inhibitor project, GFP/RFP fluorescence, OD600, single point. GFP signal change (wild-type ribosome), % (concentration not given with the values). E. coli WT GFP vs humanized-ribosome RFP mutants, 24 h; active compounds read low; DMSO median 0, no signal -100. hit rate 1.6% among 350,000. AID 720706, 2013;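 active means significant combined selectivity score with lowered wild-type GFP, culture density cut under 30%, mutant RFP and density less affected; inactive means any of these conditions unmet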; further: one replicate is shown; some compounds called inactive have numbers as strong as hits
# ALR inh: inhibitors of human ALR sulfhydryl oxidase, primary screen, biochemical, H2O2 detection, HRP-luminol luminescence, single point; hit rate 3.8% among 290,000; inhibition, % (no concentration beside the values); purified ALR, DTT oxidation; FAD-linked sulfhydryl oxidase ALR (Homo sapiens), P55789; AID 485317, 2010;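 active means mean and each replicate at 75% or more; inconclusive means only one of the two met; inactive means neither met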;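 further: stock transfer was 7.5 nL into about 7.5 µL; 0% = neutral wells and 100% = wells with inactivated enzyme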
# Target sequence (P55789 whole entry, looked up): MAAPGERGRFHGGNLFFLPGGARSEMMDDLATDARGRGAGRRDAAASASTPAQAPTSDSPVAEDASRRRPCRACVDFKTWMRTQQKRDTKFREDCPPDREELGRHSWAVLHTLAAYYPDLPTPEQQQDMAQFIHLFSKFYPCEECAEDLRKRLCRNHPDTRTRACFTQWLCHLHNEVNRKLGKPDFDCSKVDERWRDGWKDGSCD
# FGF22 binding: binders of human FGF22 protein, primary screen, FGF22 synaptogenesis inhibitor project, biophysical, thermal shift, single point | Fibroblast growth factor 22 (Homo sapiens), Q9HCT0 | recombinant FGF22 thermal shift, SYPRO orange fluorescence; percent of sucrose octasulfate shift, DMSO zero | calls only at 9.99 µM | hit rate 1.5% among 340,000;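 active means melting point raised past a set limit in the mean and every replicate; inconclusive means no clear call; three in four hits are not shown here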
# Target sequence (Q9HCT0 whole entry, looked up): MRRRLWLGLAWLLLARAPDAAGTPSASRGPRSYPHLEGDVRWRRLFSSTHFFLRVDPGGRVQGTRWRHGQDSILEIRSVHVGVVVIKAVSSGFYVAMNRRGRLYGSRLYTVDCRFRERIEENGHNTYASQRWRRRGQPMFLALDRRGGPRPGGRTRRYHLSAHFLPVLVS
# Beta cell apopt: inhibitors of cytokine-induced beta cell apoptosis, primary screen, luminescence | INS-1E cytokine-induced death, ATP luminescence, 48 h; percent of positive-control rescue, neutral wells zero | protection from apoptosis, % (test concentration not listed) | hit rate 0.8% among 300,000 | AID 435005, 2010;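 active means all replicates at 75% or more, or half of them and the mean; inconclusive means half reach 75% but not the mean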;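 further: 0% = cytokine-treated negative control wells and 100% = positive control rescue; higher means more ATP so stronger rescue from cytokine killing; wells of about 40 µL received 100 nL stock; the first replicate is given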
# RanGTP-Impb inh: inhibitors of RanGTP-importin-beta interaction, primary screen, biochemical, FRET, CFP-Ran, YFP-importin-beta, homogeneous; Ran GTPase (GTP-bound) - importin-beta complex; cell-free CFP-Ran/YFP-importin-beta FRET ratio; hit rate 1.1% among 300,000; AID 2216, 2009; inhibition, % (test concentration not listed);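 active means most replicates above 15%; inconclusive means exactly half above 15%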;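 further: 0% = DMSO wells and 100% = Ran loaded with GDP instead of GTP; wells of about 40 µL received 100 nL stock; the first replicate is given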
# Ecoli rRNA inh OD600: second read-out of Ecoli rRNA inh, no call of its own (marks repeat the call); OD600 change, %; measured here: OD600 growth;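 optical density of the mix in the first replicate; 0 = DMSO median and -100 = no signal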
# Ecoli rRNA inh RFP: also measured in Ecoli rRNA inh; calls as there; RFP signal change, %; measured here: RFP humanized mutant strains;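 first replicate; 0 = DMSO median and -100 = no signal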
# * = called active by the depositor; i = inactive; ? = inconclusive; / = not tested or not shown; + = active, no number. Not all compounds are listed; count on the stated rates, not on these rows.
SMILES,Calb FLC,T cruzi inh,AF4-AF9 inh,Ecoli rRNA inh,Ecoli rRNA inh OD600,Ecoli rRNA inh RFP,ALR inh,FGF22 binding,Beta cell apopt,RanGTP-Impb inh
Cc1noc(C)c1S(=O)(=O)N(CC(=O)Nc1ccc2c(c1)OCCO2)c1ccc(C(C)C)cc1,1,49,-12,0,-2,-8.7,10,i,/,-2.5
CCN(CCn1cccn1)C(=O)CCc1nnc(-c2ccc3c(c2)OCO3)o1,27,-17,-1.1,7,2,2.8,/,i,-6,0.9
Cc1ccccc1NC(=O)N(CCc1nc2ccccc2[nH]1)Cc1ccccc1,-1,19,/,/,/,/,-34,/,4,9.0
CCOc1ccc(NC(=O)CCNS(=O)(=O)c2ccc3c(c2)CC(C)N3C(C)=O)cc1 (stereo not drawn),-3,-18,-0.9,2,6,-0.9,-4,i,/,-0.7
CN(Cc1nc2ccc(Cl)cc2[nH]1)Cc1nc(-c2cnccn2)no1,21,-10,-2.6,24,10,2.7,-8,i,-2,0.5
COC(=O)C1NN=C(C(=O)c2ccccc2)C1c1ccccc1 (stereo not drawn),1,-2,/,/,/,/,-2,/,-3,-1.1
O=C(CCSc1nccn1Cc1ccccc1)N1CCOCC1,7,-9,/,/,/,/,13,/,-12,3.3
Cc1ccc(C)c(-c2nnc(NC(=O)Cc3ccccc3)o2)c1,-48,-16,1.5,-13,-7,-5.2,8,i,-6,4.7
Cc1cc2cccc(C)c2nc1SCC(=O)N(C)c1nc(-c2ccccc2)cs1,-10,18,/,/,/,/,-10,/,-4,-2.2
CCC(CO)NCc1ccc(OCC(=O)Nc2cccc(C(F)(F)F)c2)c(OC)c1 (stereo not drawn),-2,-8,/,/,/,/,-5,/,0,1.7
CCS(=O)(=O)c1ccc(O)c(NC(=O)c2cc(-c3ccccn3)nc3ccccc23)c1,/,/,-0.6,-20,-27,-6.1,-18,i,-2,/
COc1ccc(NC(=O)CCS(=O)(=O)c2ccc3c(c2)CCCN3C(C)=O)cc1Cl,16,6,/,/,/,/,/,/,2,3.9
O=C(Nc1cccc2ncccc12)c1ccccc1F,0,-3,-4.4,17,9,2.7,-1,i,-8,-1.1
Cc1ccc(CN2CC(C(=O)Nc3ccc4c(C)cc(=O)oc4c3)CC2=O)cc1 (stereo not drawn),19,-14,/,/,/,/,-14,/,0,4.3
CC(=O)NCc1cc(-c2nn(C)c(=O)c3ccccc23)ccc1C,?,6,/,/,/,/,-3,/,-5,0.6
O=C(c1cc(F)c(F)cc1Cl)N1CCCc2ccccc21,5,3,-1.4,-7,-6,-1.4,/,i,0,7.8
COc1cc(Oc2nc(C(F)(F)F)nc3ccccc23)ccc1C=O,0,-3,-1.3,18,17,1.1,-12,i,-5,-0.5
COc1ccc(CCNC(=O)C2CCCN(C(=O)N(C)C)C2)c(OC)c1 (stereo not drawn),1,-7,-18,17,3,-0.8,-1,i,1,-0.1
Cc1cc(C(=O)N2CCC(Cc3ccccc3)CC2)c(C)o1,4,-1,-2.3,-22,-23,-8.6,9,i,5,-0.9
CCN(CC)C(=O)CSc1nnc(-n2nc(C)cc2C)c2ccccc12,-1,-11,/,/,/,/,-7,/,-2,-2.3
CN(Cc1ccccc1)C(=O)c1[nH]cnc1C(=O)Nc1ccc(Cl)cc1,/,/,6.4,-38,-73,-11,1,i,-1,/
COC(=O)c1cc2c(s1)CS(=O)C2 (stereo not drawn),1,-2,/,/,/,/,-1,/,-2,4.0
Cc1ccc(NC(=O)c2ccccc2NC(=O)c2cccnc2)cc1,2,-5,1.9,16,7,4.2,3,i,0,8.6
O=C(NCCC1=CCCCC1)C1CC(=O)N(C2CCCCC2)C1 (stereo not drawn),-2,-3,/,/,/,/,3,/,-3,-1.2
CCOC(=O)Cn1nc(C)c(NC(=O)c2ccc([N+](=O)[O-])c(C)c2)c1C,9,-17,-1.9,6,11,-0.4,-2,i,-4,-4.0
Cc1ccc2cc3cc(C(=O)N4CCCCC4C)oc3nc2c1 (stereo not drawn),-4,12,/,/,/,/,-11,/,6,-4.4
Cc1ccccc1Nc1nc(N)nc(COC(=O)c2ccc(S(=O)(=O)N(C)C)cc2)n1,7,-3,/,/,/,/,-2,/,-2,1.8
COC(=O)c1ccc(-n2nnnc2SCc2ccccc2OC)cc1,/,4,/,/,/,/,-2,/,-3,0.4
CC(C)n1c(=O)[nH]c2cc(C(=O)Nc3ccccc3)ccc21,-8,-6,-0.6,-15,-10,-1.5,-3,i,2,4.0
O=C(O)C1C2C=CC(C2)C1C(=O)NCc1ccccc1 (stereo not drawn),-8,-12,-3.4,6,32,13,/,i,-2,1.4
Oc1ccc(-c2n[nH]c(=S)n2Cc2ccco2)cc1,-1,-6,/,/,/,/,91*,/,2,-1.9
Cc1cc(NC(=O)C2C3C(=O)N(c4cccnc4)C(C(=O)NC(C)(C)C)C34C=CC2(C)O4)no1 (stereo not drawn),8,-24,2.0,13,2,-1.7,13,i,1,-1.3
Cc1cc(C)c(C#N)c(SCSCc2ccccc2)n1,20,2,/,/,/,/,-4,/,2,8.3
CCN(CC)CCN(Cc1cc2cc3c(cc2[nH]c1=O)OCCO3)C(=S)NCCCOC,10,2,0.8,26,14,9.7,/,/,-5,-10
O=C(O)c1ccccc1Sc1ncnc2sc3c(c12)CCC3,?,-16,-1.6,-34,-30,-7.1,/,i,-10,-2.1
CN1C(=O)c2cccc(NCCCN3C(=O)c4ccccc4C3=O)c2C1=O,-5,7,4.3,21,4,0.5,-5,i,-3,-8.1
CCOc1cc(N2CCOCC2)c(OCC)cc1NC(=O)C1CC(=O)N(c2ccc(C)cc2)C1 (stereo not drawn),/,/,2.0,/,/,/,-13,i,-2,/
c1cn2c(Nc3ccc4c(c3)OCCO4)c(-c3ccc(N4CCOCC4)cc3)nc2cn1,-4,2,-30,-7,-4,3.5,?,i,9,-1.8
Cc1ccc(-n2nnnc2SCC(=O)Nc2ccccc2-c2ccccc2)cc1C,-5,8,2.4,-20,-18,-22,0,i,-7,1.0
Cc1nnc(SCc2cc(=O)[nH]c(/N=C(\N)Nc3ccccc3)n2)s1,-4,7,1.6,8,-5,-2.4,-4,i,-1,0.2
Cc1ccc(N(Cc2ccc(C(=O)Nc3ccccc3C(=O)NCc3ccco3)cc2)S(C)(=O)=O)cc1C,-3,20,-9.4,-1,-8,2.9,/,i,-1,4.2
COc1cccc(/C=N/NC(=O)CCc2ccccc2)c1,33,1,5.9,-21*,2.2*,5.9*,4,i,-3,0.5
O=C(CSc1nc2[nH]ncc2c(=O)n1-c1ccccc1)NCc1cccs1,1,4,-1.0,-2,-4,-0.9,-2,i,-10,0.6
O=C(Nc1ccc(F)cc1)NC1CCN(Cc2c(F)cccc2Cl)CC1,-5,/,-2.5,11,15,0.2,2,i,-3,1.2
O=C(NCC(c1cccs1)N1CCOCC1)c1cccnc1 (stereo not drawn),0,-6,/,/,/,/,3,/,-5,?
CCc1cc(C(=O)N2CCN(c3ncc(C(F)(F)F)cc3Cl)CC2)sc1C,1,35,-0.4,-3,-20,3.9,20,i,0,4.8
CNC(=S)N/N=C/c1ccc(-c2cccc(C(=O)O)c2)o1,3,-1,-1.1,-4,1,3.4,17,i,22,0.5
O=C(O)C1CCCN1c1nc(C(F)(F)F)nc2ccccc12 (stereo not drawn),-1,-7,0.9,13,11,0.3,-5,i,-2,5.3
CN1C(=O)NC(c2ccccc2[N+](=O)[O-])C2=C1CC(C)(C)CC2=O (stereo not drawn),1,-4,-5.2,-1,5,-3.6,-205,i,-4,1.1
O=C(CCC1CCCN(C2C3CC4CC(C3)CC2C4)C1)NCc1ccc(F)c(F)c1 (stereo not drawn),-21,12,-0.7,-3,-1,0.1,-3,i,2,3.8
CCN(CC)CCN(C(=O)Cn1nnc(-c2ccc(OC)c(OC)c2)n1)C(C(=O)NC1CCCC1)c1ccc(F)cc1 (stereo not drawn),-1,-6,1.8,9,5,-0.3,4,+,3,-1.4
CCS(=O)(=O)NC(C)C(c1cccs1)N1CCN(c2ccc(OC)cc2)CC1 (stereo not drawn),-1,-3,16,0,-8,-6.0,99*,i,1,3.8
O=C(CCl)NCCCN(C(=O)C(Cl)Cl)c1ccc([N+](=O)[O-])cc1,27,-28,-1.5,13,1,0.0,0,i,-2,5.1
O=C(NCCN1CCN(c2ccccc2)CC1)c1ccc(NC(=O)C2CCCO2)cc1 (stereo not drawn),-30,-13,/,/,/,/,/,/,3,1.0
Cc1ccc2[nH]c(=O)c(-c3nc4c(C)cccn4c3NCc3ccco3)cc2c1,-6,10,/,/,/,/,33,/,24,1.0
C/C(=N/Nc1ccccc1[N+](=O)[O-])c1ccc(C)c([N+](=O)[O-])c1,-4,-2,0.3,-1,-1,0.9,/,i,/,-1.9
CCOC(=O)C1(Cc2ccccc2)CCN(Cc2ccc3cc(NC(C)=O)ccc3n2)CC1,-35,17,1.2,-12,-16,1.2,-1,/,-11,0.6
CCOC(=O)Cc1csc(NC(=S)NC(=O)c2ccc(F)cc2)n1,-2,?,/,/,/,/,-5,/,1,-2.7
O=C(NCCN1C(=O)C2C3C=CC(C3)C2C1=O)NCc1ccccc1 (stereo not drawn),4,-5,-1.4,19,8,-0.5,-6,i,-1,-5.0
Cc1cccc(CCNC(=O)c2cccc(N3CCCC3=O)c2)c1,-5,-15,-3.4,-11,4,-11,-3,i,4,0.8

# More structures follow:
SMILES,Calb FLC,T cruzi inh,AF4-AF9 inh,Ecoli rRNA inh,Ecoli rRNA inh OD600,Ecoli rRNA inh RFP,ALR inh,FGF22 binding,Beta cell apopt,RanGTP-Impb inh
CCc1ccc(C(=O)NNC(=O)Cn2c(=O)cnc3ccccc32)cc1,/,/,0.7,5,2,-0.6,/,i,-5,/
CCOC(=O)C(C)N1CC(=O)N(c2ccccc2)C1=O (stereo not drawn),-5,-7,-0.2,2,6,-3.5,/,i,-1,7.0
Cn1c(=O)c2c(ncn2Cc2cc(-c3ccccc3)no2)n(C)c1=O,2,-15,/,/,/,/,/,/,-1,-1.1
O=C(C1CCCN1S(=O)(=O)c1ccc(Cl)cc1)N1CCN(c2ccccc2)CC1 (stereo not drawn),/,/,5.8,-11,-1,-0.1,35,i,-2,/
